LANA-H2A inh – blocks KSHV LANA binding to histone H2A/H2B. inhibition, % (test concentration not listed). 320,000 compounds, 0.6% hits. cell-free LANA-H2A/H2B peptide, fluorescence polarization. Q9QR71; in the data active = inhibition mostly above about 10%, no sharp cut-off; inactive = mostly below about 6.7%;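 note: stock transfer was 7.5 nL into about 10 µL; 0% = median of vehicle wells and 100% = median of positive control wells; one replicate is shown; the record names a cut of 25% in any replicate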
ALR H2O2 inh – human ALR oxidase inhibition via reduced H2O2 | P55789 | purified ALR, DTT oxidation, H2O2 HRP-luminol luminescence | inhibition, % (no concentration beside the values) | 290,000 compounds, 3.8% hits;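 active = mean and each replicate at 75% or more; inconclusive = only one of the two met; inactive = neither met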;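 note: stock transfer was 7.5 nL into about 7.5 µL; 0% = neutral wells and 100% = wells with inactivated enzyme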
B2AR ag – agonists of human beta-2 adrenergic receptor inducing internalization. AID 504454. 340,000 compounds, 0.43% hits. response, % (test concentration not listed). P07550. Am2.2-beta2AR cells, FAP receptor internalization, flow cytometry; reference of the scale not given here;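 active = response above a set limit, near 3 SD of response in nonfluorescent compounds, cut at about 42% in these data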;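 note: stock transfer was 100 nL into about 11 µL; a reference agonist was the positive control; negative values mostly stem from fluorescent compounds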
Target sequence (P07550 whole entry, looked up): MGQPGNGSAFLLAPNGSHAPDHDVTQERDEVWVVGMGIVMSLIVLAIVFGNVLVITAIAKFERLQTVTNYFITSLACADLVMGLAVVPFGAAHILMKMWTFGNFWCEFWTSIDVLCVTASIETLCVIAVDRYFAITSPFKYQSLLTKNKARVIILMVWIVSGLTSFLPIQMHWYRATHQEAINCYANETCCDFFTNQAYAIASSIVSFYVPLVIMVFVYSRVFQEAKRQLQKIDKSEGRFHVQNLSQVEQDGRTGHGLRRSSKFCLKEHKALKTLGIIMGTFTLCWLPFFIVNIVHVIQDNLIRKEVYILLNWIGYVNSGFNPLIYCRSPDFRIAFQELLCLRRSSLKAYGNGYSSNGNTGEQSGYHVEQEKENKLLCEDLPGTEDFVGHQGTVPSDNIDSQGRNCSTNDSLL
Calb FLC – C. albicans growth modulation with fluconazole | C. albicans CaCi-2 (fluconazole-resistant clinical isolate) + fluconazole, Alamar Blue growth, 48 h | growth inhibition, % (concentration not given with the values) | 300,000 compounds, 0.57% hits | AID 1979;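 active = most replicates above 75%; inconclusive = exactly half above 75%; inactive = most below 75%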;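 note: all wells also contain fluconazole at 8 µg/ml as a sub-toxic cotreatment; 0% = median of DMSO wells and 100% = median of geldanamycin control wells; wells of about 8 µL received 7.5 nL stock; the first replicate is given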
HNF4A DNA FP – change in binding of human HNF4 alpha to DNA. P41235. 360,000 compounds, 0.3% hits. HNF4a-FITC DNA binding, fluorescence polarization, 1 h. AID 1224865. activity change, % at 10 µM; in the data active = activity change above about 30%, passing the limit was not always enough;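 note: controls were the assay level and a saturating level of protein; the project sought stronger binding though the title names inhibitors; some compounds called inactive have numbers as strong as hits; positive values seem to mean higher polarization but the record does not say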
Target sequence (P41235 whole entry, looked up): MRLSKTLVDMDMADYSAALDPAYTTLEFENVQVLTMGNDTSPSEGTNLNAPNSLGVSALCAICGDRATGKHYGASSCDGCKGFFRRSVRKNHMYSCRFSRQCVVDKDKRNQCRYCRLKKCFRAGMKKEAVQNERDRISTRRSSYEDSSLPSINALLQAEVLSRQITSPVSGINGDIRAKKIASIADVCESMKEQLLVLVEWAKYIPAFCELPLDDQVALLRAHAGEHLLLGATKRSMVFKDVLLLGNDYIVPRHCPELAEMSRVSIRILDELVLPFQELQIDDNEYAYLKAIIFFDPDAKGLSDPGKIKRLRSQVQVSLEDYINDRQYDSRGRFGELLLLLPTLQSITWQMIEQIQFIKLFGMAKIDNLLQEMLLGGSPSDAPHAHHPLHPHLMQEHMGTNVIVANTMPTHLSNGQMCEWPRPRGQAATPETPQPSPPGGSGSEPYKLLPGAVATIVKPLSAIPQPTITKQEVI
Vif TR-FRET – inhibitors of Vif binding to APOBEC3G peptide, primary screen, biochemical, TR-FRET, GST-Vif 1-94, biotin-A3G peptide, dose response retest (AID 1117319); TR-FRET GST-Vif / biotin-A3G peptide binding; higher % means a stronger effect; test concentration not given here; strong numbers were not always called active; inhibition, %, or IC50 in µM where a hit was titrated; 260,000 compounds, 0.57% hits;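 active = above the screen mean plus three standard deviations and confirmed in dose response; inconclusive = results disagree or hit not tested in dose response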;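 note: Vif residues 1-94 fused to GST binding biotinylated APOBEC3G peptide 110-148; 0% = full assay without inhibitor and 100% = GST in place of GST-Vif; retest series ran down from 100 µM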
RanGTP-Imp inh – disruptors of Ran-importin-beta complex formation – biochemical, FRET, CFP-Ran, YFP-importin-beta, homogeneous, primary screen. cell-free CFP-Ran/YFP-importin-beta FRET ratio. inhibition, % (no concentration beside the values). 300,000 compounds, 1.1% hits. AID 2216;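 active = most replicates above 15%; inconclusive = exactly half above 15%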;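 note: 0% = DMSO wells and 100% = Ran loaded with GDP instead of GTP; wells of about 40 µL received 100 nL stock; the first replicate is given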
* hit, by the source's call; ? = inconclusive; / = no result given; & = joins results of further samples.

mol	LANA-H2A inh	ALR H2O2 inh	B2AR ag	Calb FLC	HNF4A DNA FP	Vif TR-FRET	RanGTP-Imp inh
CC1CCCC(C)N1CCOc1cc(N)ccc1C#N (centres undefined)	/	/	-4	/	-1.5	-13%	/
Cc1ccc2c(NC(=S)NC(=O)c3ccccc3)cccc2n1	-3.3	-7	-8	65	2.8	/	-0.7
CC(C)C(OC(=O)c1cccs1)C(=O)NCc1ccc2c(c1)OCO2 (centres undefined)	3.3	-2	5	-27	1.7	21%	-3.1
O=C(CSc1nnc2scc(-c3ccccc3)n12)NCc1ccc2c(c1)OCO2	-1.3	1	3	-6	-0.8	21%	0.2
Cc1ccc(NC(=O)C2CC(O)CN2C(=O)Oc2ccccc2)c(C)c1 (centres undefined)	6.8	/	-7	-9	2.2	/	1.6
Cc1ccc(CNC(=O)Cn2cnc(C(=O)Nc3ccc(C)c(C)c3)n2)o1	/	/	-1	/	-0.5	3%	/
COc1ccc(C(=O)OCC(=O)c2ccc(F)cc2)cc1OC	0.9	-1	-1	/	0.3	1%	/
CC(C(=O)NCCN1C(=O)S/C(=C\c2cccs2)C1=O)N1C(=O)c2ccccc2C1=O (centres undefined)	0.5	-2	-12	-2	1.5	/	-4.2
O=C1CC(c2ccccc2)c2cccc(F)c21 (centres undefined)	4.0	-2	-2	0	1.5	-3%	2.6
Cc1cc(N/C=C\c2nnnn2-c2ccccc2)no1	6.0	-5	-4	-22	1.5	2%	-0.8
CCC(CC)CN1CCN=C1Nc1ccccc1	-2.9	/	1	/	1.9	/	/
Cc1cccc2c(SCC(=O)NCC3CCCO3)nc(-c3ccc(F)cc3)nc12 (centres undefined)	-0.1	1	-4	3	0.4	-1%	0.5
COc1ccccc1/C=C/C(=O)Nc1nc(N)n(-c2ccccc2)n1	13	-4	3	-3	0.6	-6%	1.1
Cc1ccc(NC(=O)CCC(=O)N2CCOCC2)nc1	-3.0	46	-10	5	-2.9	7%	3.6
COc1ccc(/C=N/NC(=O)C(=O)/C=C2\NC3(CCCC3)Cc3ccccc32)cc1	-1.3	-4	18	29	-0.3	/	-1.7
COc1cc(OC)cc(C(=O)N[C@H](C(=O)Nc2nc(-c3ccc(OC)c(OC)c3)cs2)C(C)C)c1	6.2	-8	3	5	-3.1	-6%	0.0
CCOC(=O)c1ccc(CC2SC(N)=NC2=O)cc1 (centres undefined)	-3.2	-11	2	4	2.4	2%	-0.9
CCc1cc(=O)oc2cc(C)cc(OCc3nn[nH]n3)c12	-1.6	2	-8	7	2.0	1%	0.8
C/C(CC(=O)Nc1ccccc1C(F)(F)F)=N\NC(=O)c1cnccn1	-0.8	15	2	-8	4.8	-10%	-3.9
O=C1NC[C@H](Cc2ccccc2)N(CC2CCN(CCCCc3ccccc3)CC2)C1=O	/	/	8	/	-2.0	-6%	/
CN1CCN(C(c2ccc(Cl)cc2)c2cc(Cl)c3cccnc3c2O)CC1 (centres undefined)	2.7	-2	25	-6	-0.3	5%	0.1
O=C(CSc1ncnc2ccccc12)NCCCO	2.4	-7	-13	-15	-0.7	1%	0.7
COc1cc(CNc2cccc(F)c2)cc(Br)c1O	4.1	-2	-6	-5	4.2	16%	-0.4
CC(=O)Nc1ccc(S(=O)(=O)NCCC(=O)NCc2ccncc2)cc1	-7.9	/	-1	1	-2.0	-5%	0.5
Cc1cc(C(=O)NCCc2ccc(S(N)(=O)=O)cc2)no1	-2.8	-3	-2	-1	4.2	-5%	-2.3
CCN(CC)CCN(C(=O)c1cc2c(ccc3ccccc32)oc1=O)c1nc2cc3c(cc2s1)OCCO3	-2.0	-17	-11	1	-1.3	/	3.3
COc1ccc(C(=O)NCCc2ccc(C)cc2)cc1OC1CCN(C(C)=O)CC1	-4.9	-5	-1	0	1.5	-5%	1.4
CC(C)C(NC(=O)C(C)N1C(=O)c2ccccc2C1=O)c1ccccc1 (centres undefined)	-3.3	-2	-34	1	-2.8	-2%	-2.9
Cc1ccc(S(=O)(=O)CCC(=O)Nc2cccc(Cl)c2)cc1	1.3	-5	-5	-3	-1.2	-8%	-2.3
O=C(Cn1cc(C(F)(F)F)ccc1=O)N/N=C/c1ccccc1	-1.9	-2	3	-7	-0.6	12%	-3.6
CCCCn1nc(C(=O)Nc2ccc3c(c2)OCCO3)c2ccccc2c1=O	-7.9	21	7	/	1.2	/	/
CN(C)C(=O)CCc1ccc2c3c([nH]c2c1)[C@]1(CCC2CCCC2)[C@@H](C(=O)N2CCOCC2)C[C@H](CC(=O)NCCc2ccccn2)C(=O)N1CC3	/	/	-5	/	4.7	-5%	/
N#CC1=C(N)Oc2cc(O)ccc2C1c1ccccc1 (centres undefined)	-4.1	58	-7	-5	8.5	13%	53*
Cc1cc(Nc2cccc(Br)c2)c2ccccc2n1	0.3	-28	-7	-4	3.2	/	-2.3
O=C1NCCCc2nc(Oc3ccccc3)sc21	-1.3	-6	1	-1	-0.6	-7%	-1.6
COc1ccc(N(S(=O)(=O)c2ccccc2)S(=O)(=O)c2ccccc2)c(N)c1	6.5	0	1	-4	3.4	/	0.2
O=S(=O)(CC(CN1CCCCC1)N1CCCCC1)c1ccc2ccccc2c1 (centres undefined)	/	/	6	-4	-3.2	0%	-1.8
Cc1ccc(-n2c(N)cc(=O)nc2SCC(=O)N2CCN(c3ccccc3)CC2)cc1C	-8.1	68	-3	6	-3.2	-4%	?
COc1ccc(Oc2ncccc2NC(=O)c2cccc(C)c2C)cc1	2.4	/	1	1	3.8	-5%	-2.0
Cc1cc([N+](=O)[O-])nn1CC(=O)Nc1ccc(Cl)cn1	-7.2	/	4	11	-0.4	7%	1.0
O=C(NC1CCN(S(=O)(=O)c2cccc(F)c2)CC1)c1cccc(F)c1	2.2	1	2	-14	-3.4	/	1.9
Cc1cccc(N2N=C(C(=O)O)CCC2=O)c1	5.9	/	2	-6	-2.0	-1%	0.2
O=C(NC(=S)NC1CCSC1=O)c1ccccc1Cl (centres undefined)	-8.6	4	2	1	0.7	-7%	1.0
CCC[C@H]1CC(=O)C=C(c2ccc(OC)cc2)ON1C(=O)OC(C)(C)C	/	/	8	/	0.6	2%	/
CCCCn1c(N)c(N(CC(C)C)C(=O)c2ccc(Br)o2)c(=O)[nH]c1=O	/	/	6	1	0.1	1%	-1.8
CN1CCCCCC1C(=O)N1CCC(N2CCC(C(=O)N3CCOCC3)CC2)CC1 (centres undefined)	-5.8	-3	-10	-7	0.0	7%	5.4
Cc1nnc(SCC(=O)NC(=O)NCCC(C)C)s1	0.3	2	-11	1	1.7	1%	0.5
CC(C)c1ccc(C2C(C(=O)c3ccco3)=C(O)C(=O)N2CC2CCCO2)cc1 (centres undefined)	1.5	9	-7	-3	-3.7	/	1.7
CN1C(=S)SC(C)(C)C1/[N+]([O-])=C/c1cccnc1 (centres undefined)	0.5	-7	-11	-2	1.5	4%	2.2
COC(=O)C(C(=O)Nc1nc2ccccc2s1)C1CCCC1 (centres undefined)	1.7	-3	6	-13	-0.8	4%	-2.4
Cc1nc2c(ncn2-c2ccccc2)c(=O)n1NC(=O)CN1CCN(C)CC1	-8.4	-3	-1	0	-4.9	-7%	6.0
CC1CC(C)CN(S(=O)(=O)N2CCCC(C(=O)NC(C)c3ccccc3)C2)C1 (centres undefined)	0.3	0	4	8	2.6	/	0.5
CCOc1ccccc1N(CC(=O)NC1CCCC1)C(=O)CCCC(=O)Nc1ccccn1	-0.3	/	-6	-4	-1.4	1%&0%	0.4
Cc1nn(CC(=O)N(C)C)c(C)c1S(=O)(=O)N1CCOCC1	-4.1	/	1	/	-0.2	-12%	/
CC(=O)N1c2ccc(S(=O)(=O)NCCc3ccc(S(N)(=O)=O)cc3)cc2CC1C (centres undefined)	0.4	-7	-1	32	-0.6	/	2.1
O=C(N/N=C/C=C/c1ccccc1[N+](=O)[O-])c1cc(-c2ccccc2)n[nH]1	-4.2	-17	15	13	3.5	31%	3.4

Continuation:
mol	LANA-H2A inh	ALR H2O2 inh	B2AR ag	Calb FLC	HNF4A DNA FP	Vif TR-FRET	RanGTP-Imp inh
CCOc1ccc(/C(CCC(=O)O)=N/NC(=O)c2cccc(S(=O)(=O)Nc3ccccc3OC)c2)cc1	1.4	/	6	/	0.1	-3%	/
O=C(Nc1ccc(NC(=O)c2ccco2)cc1)c1ccco1	1.4	-14	4	0	-2.2	/	-1.4
Cc1ccc(OC(=O)c2ccc(Br)o2)cc1	-6.4	8	-4	-4	-3.1	-3%	3.2
Cc1ccc(Cl)cc1NC(=O)CCC(=O)O	6.1	-17	2	1	-1.1	/	-2.9
COc1ccc(NC(=O)C(=O)c2cn(CC(=O)N3CCCC3)c3ccccc23)cc1OC	-1.3	-2	-5	1	-2.6	11%	-1.7
CCCC(=O)N(Cc1cc(=O)[nH]c2ccccc12)c1ccccc1	-1.3	2	3	9	-3.3	/	3.6
Cc1cccc(NC(=O)c2ccc3c(c2)C(=O)N(c2ccccn2)C3=O)c1C	-0.1	2	4	-6	0.9	3%	0.7
CCOC(=O)c1c(NC(=O)CSc2ncccn2)sc2c1CC(C)(C)NC2(C)C	3.1	-9	-1	10	2.2	-2%	0.4
CCC1N=C(SC)NC(C)=C1C(=O)c1ccccc1 (centres undefined)	2.6	6	-1	-8	2.5	-2%	/
CCc1cccc2c1Sc1ccccc1CC2N1CCNCC1 (centres undefined)	0.8	4	26	-28	-0.9	/	1.3
CN(C)CCCN1C(=O)c2cccc3c([N+](=O)[O-])ccc(c23)C1=O	1.4	69	13	/	-37	?	/
CCOC(=O)C1Nc2c(cc(C(F)(F)F)cc2[N+](=O)[O-])C2c3ccccc3CC12 (centres undefined)	-2.7	-13	3	2	-2.9	/	-4.7
CCN(CC)CCNC(=O)COc1ccc(Cl)cc1Cl	-6.4	0	-6	-2	-1.0	-1%	3.1
O=C(CCN1CCc2ccccc2C1)Nc1ccccc1F	4.3	-5	8	-1	1.9	20%	-4.6
CSc1ccc(CCNC(=O)CSc2ccsc2[N+](=O)[O-])cc1	0.4	-8	-1	9	-3.0	-1%	-1.9
Cc1ccc(C)c(S(=O)(=O)N2CC(=O)Nc3ccccc32)c1	0.2	/	0	?	-0.3	-5%	-2.5
Cn1nc(-c2ccc(C(=O)O)cc2)c2ccccc2c1=O	3.5	-9	0	-8	-0.6	-3%	?
CC1CCc2nn(CC(=O)NCCN3CCCCC3C)cc2C1 (centres undefined)	0.0	-6	0	-9	-3.1	33%	-2.6
COc1cc(-c2noc(C)c2C#CC2(N)CCCCC2)cc(OC)c1OC	-7.1	0	6	-7	-2.6	/	7.1
O=C(NN=Cc1ccccc1O)C(O)c1ccccc1 (centres undefined)	/	/	-2	/	1.2	-8%	/
O=C1c2ccccc2C(=O)N1CC1c2ccccc2CCN1C(=O)C1CCCCC1 (centres undefined)	-1.4	-2	-7	10	-5.3	5%	-4.0
C(=N\N1CCN(Cc2ccccc2)CC1)/c1ccccc1	2.5	/	2	-1	1.1	26%	0.8
C#CCOCCOCCOCCNc1nc(N2CCN(C(=O)[C@H](CC(N)=O)n3cc([C@@H](N)CC(N)=O)nn3)CC2)nc(N2CCN(C(=O)[C@H](CC(N)=O)n3cc([C@@H](N)CC(N)=O)nn3)CC2)n1	4.0	17	-9	/	0.8	/	/
O=C(/C=C/c1cccs1)Nc1scc(-c2ccccc2)c1C(=O)O	/	/	1	0	4.3	-8%	-2.0
O=C(c1ccco1)N(Cc1ccco1)Cc1cc2ccccc2[nH]c1=O	0.8	6	-2	-3	1.7	/	4.7

The order is random, and some 6.3% of all compounds hit somewhere here.
